PK Bst: alters activity of Bacillus stearothermophilus pyruvate kinase; AID 361; Potency, µM; partly purified Bacillus stearothermophilus pyruvate kinase, luminescence ATP production; ribose 5-phosphate activator present at AC10; 1.2% of 51,000 active; in the data active means potency below about 11 µM; inconclusive means mostly about 12 µM to 25 µM; inactive means weaker than that;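 the screen sought inhibitors and activators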;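 note: potency is the fitted concentration of half-maximal effect; scaled between full activation by ribose 5 phosphate and full inhibition by luteolin; about four in five hits inhibit and the cells do not say which; series up to 57 µM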
TsaE inh: inhibitors of E. coli YjeE (TsaE); P0AF67; purified YjeE, fluorescence polarisation of a bound ADP probe; Potency, µM; 0.05% of 71,000 active; AID 605; active = well fitted falling curve; inconclusive = weaker or top-dose-only fall, or a rising curve; inactive = flat or poorly fitted curve;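 note: top concentration of the series not given in the record; excess ADP was the control for the full effect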
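Purified YjeE (10 uM) with BODIPY Texas Red-labeled ADP probe (2 uM); compounds pin-transferred, 15 min at room temperature. Binding inhibition read as decreased fluorescence polarization; ADP titration as control.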
* = called active by the depositor; i = inactive; u = inconclusive; x = no result given. A portion of the library; rates above refer to the full screens.

PK Bst	TsaE inh	Compound
>57	i	C=CCN=C1SCC(=O)N1S(=O)(=O)c1ccc(C)cc1
>57	i	CCOC(=O)Cn1nnnc1CN(Cc1ccc(OC)cc1)Cc1cc2cc(C)ccc2[nH]c1=O
x	i	COc1cc(C(=O)Nc2cc(-c3ccccc3)[nH]n2)cc(OC)c1OC
u	i	N=C1C(c2nc(-c3ccc(F)cc3)cs2)=C(O)CN1CCCN1CCOCC1
x	i	OC(C#CCN1CCOCC1)c1cccs1 (stereo not given)
x	i	N#[N+]c1ccc(Nc2ccccc2)cc1
>57	i	COc1ccc(-c2noc(-c3cccc(Cl)c3)n2)cc1OC
>57	i	CCCOc1cccc(C(=O)Nc2cc(NC(=O)c3ccco3)ccc2OC)c1
>57	i	CCOc1cc(-c2nc(-c3cc(OC)c(OC)c(OC)c3)no2)cc(OCC)c1OCC
x	i	Cc1ccccc1OCCCCc1c(C)n[nH]c1C
>26	x	Cc1nnc(NCc2n[nH]c(=O)c3ccccc23)c2ccccc12
>57	i	CCN(Cc1nc2ccccc2c(=O)[nH]1)Cc1nc2cc(OC)c(OC)cc2c(=O)[nH]1
>57	i	CCN(C(=O)c1cc2cccc(OC)c2oc1=O)c1ccccc1
i	i	CN1CCN(c2nc(-c3ccncc3)nc3ccccc23)CC1
>57	i	CCCc1nnc(SCC(=O)N2CCCC2)n1CC1CCCO1 (stereo not given)
x	i	COc1cc2c(cc1OC)C(=O)N(C)CC2
>57	i	CCC1CCCN1Cn1cnc2c([nH]c3ccc(OC)cc32)c1=O (stereo not given)
>57	i	O=C(O)C1CCCN1C(=O)Nc1ccccc1 (stereo not given)
x	i	C[N+](C)(N)CCC[N+](C)(C)N
>57	i	Cc1c(NC(=O)c2cc(-c3ccco3)on2)c(=O)n(-c2ccccc2)n1C
>57	i	CCC(CC)COC(=O)C(C#N)c1nc2ccccc2nc1N1CCOCC1 (stereo not given)
>57	i	CC1CCc2nc(NC(=O)CN3CCOCC3)sc2C1 (stereo not given)
>57	i	O=C(CN1C(=O)c2ccccc2C1=O)Nc1ccc2c(c1)OCO2
x	i	c1ccc(CNc2nc(-c3cccnc3)nc3ccccc23)cc1
>57	i	O=C(Cn1ccc2ccccc2c1=O)NCCC(=O)NC1CCN(Cc2ccccc2)CC1
>57	i	N#Cc1ccccc1Cn1c(=O)n(CCC(=O)NCc2ccco2)c(=O)c2ccccc21
>57	i	COC(=O)CSc1nsc(SCC(=O)OC)c1C#N
>57	i	Cc1c(C(=O)Nc2cccc3cccnc23)oc2ccccc12
>11	i	O=C(O)c1cc(-c2ccc3c(c2)OCO3)nc2ccccc12
x	i	CCOC(=O)C1=C(C)N(C)C(C)=C(C(=O)OCC)C1c1ccccn1
>57	i	O=C(CCCCCn1c(=S)[nH]c2cc3c(cc2c1=O)OCO3)N1CCN(C(=O)c2ccco2)CC1
>57	i	O=C(NCC1COc2ccccc2O1)C1CCN(S(=O)(=O)c2cccc3nsnc23)CC1 (stereo not given)
>11	i	CC(C)C(NCc1c(Cl)cccc1Cl)C(=O)O (stereo not given)
x	i	O=C(Cn1c(S(=O)(=O)Cc2ccccc2)nc2ccccc21)N1CCCCC1
u	x	CCCSc1nnc2n(-c3ccccc3OC)c(=O)c3c4c(sc3n12)CCC4
>57	i	CCN(CC)S(=O)(=O)c1ccc2c(c1)c(=O)c(C(=O)NCCN(C)CCc1ccccc1)cn2C
x	i	CCCCn1c(Oc2ccc(C(=O)OC)cc2)nc2c1c(=O)n(C)c(=O)n2C
>57	i	CC(C)CC(c1nnnn1CC1CCCO1)N1CCN(C2CCCC2)CC1 (stereo not given)
>57	i	O=C(O)C1C2CCC(O2)C1C(=O)Nc1cccc(F)c1 (stereo not given)
x	i	CCOC(=O)Cc1csc(NC(=O)c2ccc(Br)s2)n1
>57	i	COc1cc(Cl)cc(C#N)c1OCC(=O)O
>57	i	COCc1nnc(NC(=O)CCCCCN2C(=O)c3ccccc3C2=O)s1
>57	i	Nc1ccc(Sc2nnnn2-c2ccccc2)c(Cl)c1
>57	i	O=C(NC1CCCC1)C1C2C=CC(C2)C1C(=O)N1CCOCC1 (stereo not given)
x	i	COc1ccc(CNC(=O)C(c2cccs2)N(C(=O)c2csnn2)C2CC2)cc1 (stereo not given)
>57	i	COc1ccccc1N1CCN(C(=O)c2ccc3nc(-c4ccco4)c(-c4ccco4)nc3c2)CC1
>57	i	CCC(=O)N1CCN(c2ccc(Cl)cc2NC(=O)c2ccc(Br)o2)CC1
>57	i	CCOC(=O)c1cccc(NC(=O)CCn2nnc3ccccc32)c1

Some of the entries above, set out differently:
Results follow in this order: PK Bst, TsaE inh
CCCCn1c(Oc2ccc(C(=O)OC)cc2)nc2c1c(=O)n(C)c(=O)n2C
 : x, i
CC(C)CC(c1nnnn1CC1CCCO1)N1CCN(C2CCCC2)CC1 (stereo not given)
 : >57, i
O=C(O)C1C2CCC(O2)C1C(=O)Nc1cccc(F)c1 (stereo not given)
 : >57, i
CCOC(=O)Cc1csc(NC(=O)c2ccc(Br)s2)n1
 : x, i
COc1cc(Cl)cc(C#N)c1OCC(=O)O
 : >57, i

Look-ups from the results shown.
O=C(NC1CCCC1)C1C2C=CC(C2)C1C(=O)N1CCOCC1 (stereo not given) in PK Bst is entered as >57
COCc1nnc(NC(=O)CCCCCN2C(=O)c3ccccc3C2=O)s1 in PK Bst is entered as >57
O=C(O)C1C2CCC(O2)C1C(=O)Nc1cccc(F)c1 (stereo not given) in PK Bst is entered as >57

(listing goes on)
PK Bst	TsaE inh	Compound
>57	i	Nn1c(SCC(=O)NCc2ccccc2)nnc1C1CC1
>57	i	CS(=O)(=O)Nc1ccccc1C(=O)c1ccccc1
>57	i	CCc1nnc(NC(=O)CSc2nnc(-c3ccccc3O)n2-c2ccc(C)cc2)s1
>57	i	c1ccc(N2CCN(c3c4c(nc5ncnn35)CCC4)CC2)cc1
>57	i	Cc1ccc(N(C(C)C(=O)O)S(=O)(=O)c2c(C)n[nH]c2C)cc1 (stereo not given)
>57	i	CN(CCc1ccccn1)C(=O)CN(C)S(=O)(=O)c1ccc2c(c1)c(=O)n(C)c(=O)n2C
>57	i	c1ccc(Cn2c(SCCN3CCOCC3)nnc2-c2cccnc2)cc1
>57	i	CC(C)[C@H](NC(=O)OC(C)(C)C)c1nnc(SCc2cccc(F)c2)o1
x	i	O=C(O)c1cc(=O)[nH]c(=O)[nH]1
>57	i	COC(=O)c1ccc2c(=O)sc(N3CCC(C(N)=O)CC3)nc2c1
>57	i	COc1ccccc1N1C(=O)c2ccccc2NC1c1ccncc1 (stereo not given)
x	i	c1ccc(CNc2ncnc3ccc(-c4ccc5c(c4)OCO5)cc23)cc1
x	i	COc1ccc(Cc2nnc(-c3cccc(C)c3)o2)cc1OC
>57	i	Cc1ccc2c(c1)cc(CN(Cc1ccc3c(c1)OCO3)S(=O)(=O)c1ccccc1)c1nnnn12
>57	i	Cc1csc(NC(=O)Cn2cnnn2)n1
x	i	NC(=O)c1nnn(Cc2cc(Cl)c(C(=O)c3ccc(Cl)cc3)c(Cl)c2)c1N
>57	i	Cc1noc(C)c1C(=O)NCCc1ccc(Cl)cc1
>57	i	CCOc1ccc(OCC(=O)Nc2ccc(S(=O)(=O)Nc3cc(C)nc(C)n3)cc2)cc1
>57	i	Cc1cccc(N(CC(=O)NCc2ccco2)C(=O)CCC(=O)Nc2ccccn2)c1
x	i	CCN(CC)C(=O)CSc1ccccc1N
>57	i	O=C1CN(C(=O)OCc2ccccc2)c2ccccc2N1
x	i	O=C(Nc1ccc2ccccc2c1)[C@@H]1C[C@H]1[C@@H](NP(=O)(c1ccccc1)c1ccccc1)c1ccccc1
x	i	CCC(=O)Oc1ccc2c(C)cc(=O)oc2c1C
x	i	C[C@H]1C[C@H]2[C@H]3CCC4=CC(=O)C=C[C@@]4(C)[C@]3(F)[C@H](O)C[C@]2(C)[C@@]1(O)C(=O)COP(=O)(O)O
>57	i	CN1CCN(C(=O)c2cc(-c3cccc(Cl)c3)on2)CC1
x	i	COc1ccccc1NC1=C(C)C(=O)CC1
>57	i	COc1cccc(Cn2c(-c3nonc3N)nc3ccccc32)c1
>57	i	Cc1ccc(C)c(NC(=O)CSc2nnc(-c3ccccc3)n2N)c1
>57	i	C1CCC2=NCCCN2CC1
>57	i	Cc1noc(C)c1C(=O)Nc1c(F)cc(F)cc1Br
>57	i	CCS(=O)(=O)N1CCCC(C(=O)NC2CCC(C)CC2)C1 (stereo not given)
>57	i	CCOC(=O)Nc1ccc2c(c1)N(C(=O)CCN1CCN3CCCC3C1)c1ccccc1CC2 (stereo not given)
x	i	Nc1ncn([C@@H]2O[C@H](CO)[C@@H](O)[C@H]2O)c(=O)n1
x	i	Cc1noc(C)c1C(=O)N1CCC2(CCCN(C(c3ccccc3)c3ccccc3)C2)CC1
>57	i	C=CCc1ccccc1OCC(O)CN1CCN(c2ccccc2OC)CC1 (stereo not given)
>11	i	COc1ccc(Cn2c(=O)sc3ccccc32)cc1OC
>57	i	Cc1ccc(C)c(Cn2c(=O)n(CCC(=O)NCc3ccco3)c(=O)c3sccc32)c1
x	i	Cc1cccc(-c2nsc(SCC(=O)N3CCCC3)n2)c1
>57	i	O=C(NCC1CCCO1)c1cc2n(n1)C(C(F)(F)F)CC(c1ccc(Br)cc1)N2 (stereo not given)
>57	i	CC(=O)Nc1ccc(C(=O)OCC(=O)NC(=O)NC2CCCCC2)cc1
>26	x	COC(=O)C1CCN(c2nc3ccccc3nc2C(C#N)C(=O)NCCc2ccccc2)CC1 (stereo not given)
>57	i	CCCn1c(SCC(=O)Nc2ccccc2-c2ccccc2)nnc1-c1ccoc1C
>57	i	Fc1ccc(-c2cc(C(F)(F)F)nc(N3CCCCC3)n2)cc1
x	i	Cc1ccccc1CN1C2=NCCN2C(=O)C2=C1CCN(Cc1ccccc1)C2
x	i	Cc1cccn2c(=O)c3cc(C(=O)N4CCc5ccccc54)n(C)c3nc12
>57	i	CCOC(=O)CSc1nc(C)c(C(=O)OCC)s1
x	i	CCC1C(C#N)=C(N)OC2=C1C(=O)CC(C)(C)C2 (stereo not given)
>57	i	CCOC(=O)C1CCN(C(=O)CCCN2C(=O)c3ccccc3C2=O)CC1
>57	i	COc1ccccc1Nc1nc(N)nc(CN2CCN(c3ccccc3)CC2)n1
>57	i	COc1ccccc1CNC(=O)c1ccoc1C
>57	u	CC1=C(C)CS(=O)N(S(=O)(=O)c2ccc(Cl)cc2)C1 (stereo not given)
>57	i	O=C(NCCN1CCOCC1)C1CCN(Cc2ccccc2O)CC1
x	i	O=C(C(Cc1ccccc1)n1cccc1)N1CCN(c2ncccn2)CC1 (stereo not given)
>57	i	COc1ccc(CSc2nc(N3CCOCC3)c3c(c2C#N)CC(C)(C)OC3)cc1
>57	i	CCCC(=O)NCCCc1nc2ccccc2n1CCC
x	i	Cc1ccc2oc(=O)c3cnn(CC(=O)N4CCCc5ccccc54)c3c2c1
x	i	S=c1[nH]nc(CSc2nc3ccccc3s2)o1
x	i	CC(C)(N)C(=O)N[C@@H]1C(=O)N2[C@@H]1SC(C)(C)[C@H]2C(=O)O
>57	i	O=C(NCc1ccco1)C(c1cccs1)N(C(=O)Cc1cccs1)c1ccccc1 (stereo not given)
>57	i	CC(=O)Nc1nc2ccccc2n1CCOc1ccccc1

Remaining list, next part.
PK Bst	TsaE inh	Compound
>57	i	Cc1cccc(-c2cc3nc4c(c(N5CCC6(CC5)OCCO6)n3n2)CCCC4)c1
>57	i	CCN(CC)CCCNC(=O)C1c2ccccc2C(=O)N1Cc1ccc(C)cc1 (stereo not given)
>57	i	Cc1nc2ccccn2c1P(=O)(N1CCCCC1)N1CCCCC1
>57	i	COc1ccc(OC)c(C2C(C(=O)O)c3ccccc3C(=O)N2C)c1 (stereo not given)
>57	i	c1ccc2c(c1)nnn2Cc1nnc2sc(-c3ccncc3)nn12
>57	i	CC1CCCCN1S(=O)(=O)c1ccc(NC(=O)CSc2nnnn2C)cc1 (stereo not given)
>57	i	O=C(NCCN1CCNCC1)c1ccccn1
>57	i	COC(=O)c1ccc(C)c(NC(=O)CN(c2ccc3c(c2)OCO3)S(C)(=O)=O)c1
>57	i	O=C(c1cccs1)N1CCN(S(=O)(=O)Cc2ccccc2)CC1
>57	i	C=C(C)COc1ccc(-c2[nH]ncc2Oc2ccccc2OC)c(O)c1
>57	i	CCCCn1c(=O)n(Cc2cccc(F)c2)c(=O)c2c1ncn2Cc1ccco1
u	i	O=C(Nc1cnn(Cc2ccc(Cl)c(Cl)c2)c1)c1nc2ncccn2n1
x	i	CN(C)Cc1ccccc1-c1cc(NCc2ccccc2)ncn1
>57	i	CCCCn1c(SCC(=O)N2CCCCC2)nc2cc(S(N)(=O)=O)ccc21
x	i	CC1=C(C(=O)OC2CCCCC2)C(c2ccco2)C2=C(CC(C)(C)CC2=O)N1 (stereo not given)
x	i	O=C(Nc1ccc2c(c1)OCCO2)NC1CCCCC1
x	i	CS(=O)(=O)c1ccc(Cn2c3c(c4cc(F)cc(F)c42)CCC[C@H]3CC(=O)O)cc1
x	i	CC(=O)Nc1cccc(N2C(=O)CC(Cc3ccccc3)C2=O)c1 (stereo not given)

Reprinted at random: 4 records from the list.
PK Bst	TsaE inh	Compound
x	i	O=C(C(Cc1ccccc1)n1cccc1)N1CCN(c2ncccn2)CC1 (stereo not given)
x	i	Cc1ccc2oc(=O)c3cnn(CC(=O)N4CCCc5ccccc54)c3c2c1
>57	i	CCN(CC)S(=O)(=O)c1ccc2c(c1)c(=O)c(C(=O)NCCN(C)CCc1ccccc1)cn2C
>57	i	COc1ccc(-c2noc(-c3cccc(Cl)c3)n2)cc1OC
